Screening results as filed in PubChem BioAssay.
HNF4A DNA FP = change in binding of human HNF4A to DNA, primary screen, biochemical, fluorescence polarization, FITC-DNA; Hepatocyte nuclear factor 4-alpha (Homo sapiens), P41235; 1 h; activity change, % at 10 µM; 360,000 tested, 0.3% active; in the data active = activity change above about 30%, passing the limit was not always enough;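 note: controls were the assay level and a saturating level of protein; the project sought stronger binding though the title names inhibitors; some compounds called inactive have numbers as strong as hits; positive values seem to mean higher polarization but the record does not say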
Beta2AR agonist = beta2AR agonists driving receptor internalization, primary screen, cell-based, FAP fluorogen, flow cytometry | response, % (no concentration beside the values) | 340,000 tested, 0.43% active | Am2.2-beta2AR cells; reference of the scale not given here | Beta-2 adrenergic receptor (Homo sapiens), P07550;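 active = response above a set limit, near 3 SD of response in nonfluorescent compounds, cut at about 42% in these data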;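 note: stock transfer was 100 nL into about 11 µL; a reference agonist was the positive control; negative values mostly stem from fluorescent compounds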
ALR H2O2 inh = inhibitors of human ALR sulfhydryl oxidase, primary screen, biochemical, H2O2 detection, HRP-luminol luminescence, single point. purified ALR, DTT oxidation. inhibition, % (concentration not given with the values). 290,000 tested, 3.8% active. AID 485317, 2010;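 active = mean and each replicate at 75% or more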;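 note: stock transfer was 7.5 nL into about 7.5 µL; 0% = neutral wells and 100% = wells with inactivated enzyme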
FGF22 binding = binders of human FGF22 protein, primary screen, FGF22 synaptogenesis inhibitor project, biophysical, thermal shift, single point; Fibroblast growth factor 22 (Homo sapiens), Q9HCT0; recombinant FGF22 thermal shift, SYPRO orange fluorescence; percent of sucrose octasulfate shift, DMSO zero; calls only at 9.99 µM; 340,000 tested, 1.5% active; AID 651658, 2012;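 active = melting point raised past a set limit in the mean and every replicate; three in four hits are not shown here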
LANA-H2A inh = blockers of LANA interaction with H2A/H2B – biochemical, FP readout, HTS, primary screen. cell-free LANA-H2A/H2B peptide, fluorescence polarization. Protein LANA1 (Human herpesvirus 8 type P (isolate GK18)), Q9QR71. AID 2629, 2010. 320,000 tested, 0.6% active. inhibition, % (concentration not given with the values); in the data active = inhibition mostly above about 10%, no sharp cut-off; inactive = mostly below about 6.7%;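 note: stock transfer was 7.5 nL into about 10 µL; 0% = median of vehicle wells and 100% = median of positive control wells; one replicate is shown; the record names a cut of 25% in any replicate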
Target sequence (Q9QR71 whole entry, looked up): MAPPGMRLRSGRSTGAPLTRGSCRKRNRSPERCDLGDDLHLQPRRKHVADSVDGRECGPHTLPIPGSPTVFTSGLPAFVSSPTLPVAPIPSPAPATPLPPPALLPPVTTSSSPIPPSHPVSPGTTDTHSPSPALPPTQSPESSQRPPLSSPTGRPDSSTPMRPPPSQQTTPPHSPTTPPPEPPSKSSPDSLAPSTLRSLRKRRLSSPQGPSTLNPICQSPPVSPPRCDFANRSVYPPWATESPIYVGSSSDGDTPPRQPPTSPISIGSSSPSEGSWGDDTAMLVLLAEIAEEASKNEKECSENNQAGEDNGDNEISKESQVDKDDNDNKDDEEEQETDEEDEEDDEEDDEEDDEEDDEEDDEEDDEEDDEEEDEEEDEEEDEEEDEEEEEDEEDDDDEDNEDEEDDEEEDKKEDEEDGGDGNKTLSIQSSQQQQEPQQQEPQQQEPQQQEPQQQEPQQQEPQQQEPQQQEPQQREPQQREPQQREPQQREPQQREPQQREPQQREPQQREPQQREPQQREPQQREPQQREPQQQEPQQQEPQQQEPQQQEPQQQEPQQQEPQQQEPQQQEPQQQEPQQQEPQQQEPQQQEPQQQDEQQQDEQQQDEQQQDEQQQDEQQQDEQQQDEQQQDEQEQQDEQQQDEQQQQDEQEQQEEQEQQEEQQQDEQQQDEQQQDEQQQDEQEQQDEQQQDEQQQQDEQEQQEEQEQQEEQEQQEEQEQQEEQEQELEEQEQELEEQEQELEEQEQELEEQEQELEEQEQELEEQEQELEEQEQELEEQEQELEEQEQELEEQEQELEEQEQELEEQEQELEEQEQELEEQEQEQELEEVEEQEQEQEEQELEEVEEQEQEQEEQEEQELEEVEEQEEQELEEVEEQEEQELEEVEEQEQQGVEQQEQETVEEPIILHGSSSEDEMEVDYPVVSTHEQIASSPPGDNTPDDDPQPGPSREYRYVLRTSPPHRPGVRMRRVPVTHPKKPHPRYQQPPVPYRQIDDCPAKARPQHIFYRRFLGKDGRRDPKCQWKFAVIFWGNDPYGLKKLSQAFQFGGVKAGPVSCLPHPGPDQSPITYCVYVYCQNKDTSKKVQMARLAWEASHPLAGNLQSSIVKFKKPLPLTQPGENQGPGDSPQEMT
UCH37 DUB inh = inhibitors of human UCH37 deubiquitinase, primary screen, biochemical, Ub-AMC cleavage, fluorescence | 330,000 tested, 0.33% active | inhibition, % (concentration not given with the values) | purified proteasome/UCH37;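 active = mean of two replicates above 20%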;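 note: 0% = compound-free wells with enzyme and 100% = wells lacking proteasome; stock transfer was 100 nL into about 20 µL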
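System: Proteasome-associated human UCH37 deubiquitinase; Input: 0.15 nM proteasome in added enzyme buffer; Also added: Ub-AMC substrate from 1 µM stock; Incubation: 30 min compound-proteasome preincubation then 25 min substrate reaction, room temperature; Detection: fluorescence, ex 355 nm, em 460 nm; Read-out: % inhibition of Ub-AMC cleavage fluorescence; Benchmarks: no-proteasome and no-compound wells.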
E coli growth = E. coli growth inhibition, primary screen, OD600; Escherichia coli growth, 23 h; active compounds read low; OD600 absorbance (concentration not given with the values); 330,000 tested, 0.21% active;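 active = OD600 absorbance below the run mean of sample wells minus 3.6 SD, in any replicate, cut at about 0.56 in these data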;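 note: stock transfer was 300 nL into about 60 µL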
* marks the source's active call; other numbers are inactive results; i = inactive; x = no result given. A portion of the library; rates above refer to the full screens.

compound	UCH37 DUB inh	HNF4A DNA FP	FGF22 binding	LANA-H2A inh	Beta2AR agonist	E coli growth	ALR H2O2 inh
COC(=O)COC(=O)c1ccc(-n2nnnc2SC)cc1	3.4	1.3	x	-7.9	7	0.67	-14
CC(=O)Nc1ccc(S(=O)(=O)NCCC(=O)OCc2nc(N)nc(Nc3ccccc3C)n2)cc1	2.7	2.1	x	157*	0	0.67	-3
O=C(CC1C[C@H](C(=O)N2CCCCC2)[C@@]2(CCc3ccccc3)c3[nH]c4ccccc4c3CCN2C1=O)NCCC1=CCCCC1 (some centres undefined)	0.9	-0.3	i	-5.5	9	0.69	x
COc1cc(C(=O)OCC(=O)Nc2ccc(SC(F)F)cc2)cc(OC)c1OC	x	-1.0	x	2.4	-11	x	26
Cn1c(=O)oc2cc(NC(=O)CCl)ccc21	1.4	-0.8	i	2.6	0	0.67	-28
CNC(=O)C(NC(=O)Nc1ccc(C)cc1)C(C)(C)C (centres undefined)	1.5	0.2	i	5.7	3	0.68	-14
CC(C)(C)C(=O)c1no[n+]([O-])c1/C(=N/O)C(C)(C)C	x	-1.5	x	7.5	-6	x	-7
O=C(C1=C(O)C(=O)N(CCN2CCOCC2)C1c1cccc([N+](=O)[O-])c1)c1cccs1 (centres undefined)	8.9	-0.9	i	-2.7	7	0.68	-7
COc1ccc(/C=N/NC(=O)C2C3CCCCC32)cc1OC (centres undefined)	x	-0.9	x	0.6	4	x	-18
Cc1cccc(/C(N)=N/OC(=O)Cc2cccs2)c1	1.4	7.4	x	1.8	3	0.71	-5
CC(=O)c1sc(NC(=O)C(C)Oc2ccc3c(C)cc(=O)oc3c2)nc1C (centres undefined)	-11	4.2	i	8.3	-12	0.7	-2
O=C(CN(c1ccccc1F)S(=O)(=O)c1ccccc1)N1CCCCCC1	2.0	2.2	x	0.0	1	0.72	-23
CCOc1cnc(C(=O)NNC(=O)C(Br)C(C)C)o1 (centres undefined)	4.9	0.2	i	-0.5	2	0.65	0
CCn1c(CCCOc2ccc(Cl)cc2Cl)n[nH]c1=S	2.0	-0.7	i	3.8	19	0.7	4
CCOc1ccc(NC(=O)CSc2nc3ccccc3c(=O)n2CCCC(=O)N2CCCC2)cc1	-2.7	0.1	x	0.2	-6	0.77	-9
CSc1ccc(C2NC(=O)c3ccccc3N2)cc1 (centres undefined)	-221	0.2	i	1.7	-9	0.69	0
COC(=O)c1sccc1NC(=O)c1ccccc1C(=O)O	7.1	0.1	i	0.5	2	0.7	3
O=C(CCCCCNC(=O)c1ccccc1Cl)N/N=C/c1ccco1	x	0.4	i	-0.3	7	x	-3
Fc1ccc(-n2cc(-c3ccccc3)[n+]3c2SCC3)cc1	0.9	2.1	i	7.8	-5	0.61	21
COc1ccc(OCc2cc(C(=O)NCC3(C)COC3)no2)c(Cl)c1	0.2	1.9	i	-1.1	7	0.62	-4
c1ccc2c3nnc4n(c-3nc2c1)CCCS4	3.7	1.9	i	-0.5	-10	0.66	-5
COc1cccc(-c2cccc(NC(=O)C3CCN(Cc4nccs4)CC3)c2)c1	1.6	1.4	i	0.3	-2	0.68	2
O=C(CN1CCSCC1)N/N=C/c1ccc(F)cc1	x	-0.1	i	3.6	3	x	-7
CC(C)n1cnc2c(Nc3cccc(Cl)c3)nc(NCCCO)nc21	-0.8	1.1	i	1.8	14	0.66	45
CCOc1ccc(-c2c(C(=O)N/N=C/c3ccoc3)nnn2-c2nonc2N)cc1	x	-2.8	i	-3.0	-4	x	-4

In a second layout: 2 of the compounds above.
Each structure is followed by: UCH37 DUB inh	HNF4A DNA FP	FGF22 binding	LANA-H2A inh	Beta2AR agonist	E coli growth	ALR H2O2 inh
- CCn1c(CCCOc2ccc(Cl)cc2Cl)n[nH]c1=S
  2.0	-0.7	i	3.8	19	0.7	4
- COc1ccc(OCc2cc(C(=O)NCC3(C)COC3)no2)c(Cl)c1
  0.2	1.9	i	-1.1	7	0.62	-4

(continued)
compound	UCH37 DUB inh	HNF4A DNA FP	FGF22 binding	LANA-H2A inh	Beta2AR agonist	E coli growth	ALR H2O2 inh
O=C(C1COc2ccccc2O1)N1CCN(c2ccccc2F)CC1 (centres undefined)	-0.1	0.7	x	-0.5	8	0.7	1
N=c1oc2cc(O)ccc2cc1C(=O)Nc1ccc(Br)cc1	-34	26	i	-0.3	-10	0.6	6
CC(C)CCNC(=O)CC1C(=O)N(Cc2ccccc2)C(C)c2nc3ccccc3n21 (centres undefined)	3.4	3.9	x	-1.0	-1	0.71	1
O=C(NNC(=S)NC1CC2CCC1C2)c1ccc(Cl)cc1 (centres undefined)	2.4	2.0	i	-0.2	-3	0.69	12
CCN1C/C(=C/c2sccc2C)c2nc3ccccc3c(C(=O)O)c2C1	-1.8	-5.9	i	1.9	5	0.65	0
COc1cc(/C=C2\CC(C(C)(C)C)C/C(=C\c3cc(OC)c(OC)c(OC)c3)C2=O)cc(OC)c1OC (centres undefined)	5.3	0.1	i	-7.5	12	0.71	8
O=C1c2ccccc2C(=O)N1CCn1c(=O)oc2ccccc21	4.8	-0.1	i	4.5	-4	0.68	-2
CC1(C)CC(=O)C=C(NNC(=O)c2ccccc2O)C1	4.9	8.6	x	0.0	5	0.59	74
CCCCc1cc(=O)oc2c(CN(C)C)c(O)c(Cl)cc12	i	1.0	x	2.5	-4	0.71	12
O=C(CCN1CCCCCC1)Nc1cccc(F)c1	1.1	-1.9	x	4.7	-1	0.68	-7
CCOc1ncccc1C(=O)NCc1ccc(C)cc1	2.6	-2.7	i	1.5	-4	0.69	9
O=C(CN1CCc2cc3c(cc2C1)OCCCO3)Nc1ccc(F)cc1	1.4	-4.2	i	3.9	-7	0.69	0
CC(=O)c1ccc(N2CCN(C(=O)c3cc(-c4ccc5c(c4)OCO5)nc4ccccc34)CC2)cc1	-18	-1.3	x	-6.8	3	0.76	-2
CCCSc1nc(=O)n2cccc(C)c2n1	1.3	-4.1	x	3.4	0	0.63	1
COc1ccc([C@H]2C=C3CN(C(=O)OC(C)(C)C)S(=O)(=O)[C@H]3C[C@H]2OC(=O)c2cccs2)cc1	1.7	x	i	0.7	x	x	-1
CN(C)c1ccc(C(=O)NNC(=O)C23CC4CC(CC(C4)C2)C3)cc1	0.7	-0.5	i	-0.7	-9	0.69	5
CC/C=C/C(=O)N1CC2(CC(c3cccc(NC(=O)CC)c3)=NO2)C[C@H]1C(N)=O (some centres undefined)	3.8	-1.4	i	3.0	-10	x	0
Cc1ccc(-c2nc(CS(=O)(=O)CC(=O)N3CCCCCC3)c(C)o2)cc1	2.1	1.7	i	1.8	8	0.68	95*
COC(=O)c1ccccc1NC(=O)CN(c1ccc(OC)cc1)S(C)(=O)=O	3.0	1.4	x	-5.4	-2	0.66	-4
CCOC(=O)C1CCN(C(=O)CN2C(=O)NC(C)(c3ccc4cc(OC)ccc4c3)C2=O)CC1 (centres undefined)	3.1	0.6	i	-3.3	3	0.72	-7
CC(CCc1ccccc1)NC(=O)CN1CCN(c2ccccc2)CC1 (centres undefined)	4.1	-1.2	i	4.4	-4	0.71	99*
CCN1C[C@@H]2[C@@H]3C(=O)N(Cc4ccccc4)C(=O)[C@@H]3[C@](CC)(C(=O)OC)N2C1=NC1CCCCC1	1.0	3.3	x	x	-3	0.72	x
Cc1cc(C)c(C(=O)Cn2cnc3cc([N+](=O)[O-])ccc3c2=O)cc1C	-0.3	-2.9	i	1.0	5	0.7	-50
COc1ccc(/C=C2/C(=O)ON=C2c2ccccc2)cc1OC	0.8	0.4	x	1.4	17	0.71	23
O=C(CSc1ncn[nH]1)OCN1C(=O)c2ccccc2C1=O	1.2	-0.2	x	-4.0	3	0.69	6

Rewritten field by field: 2 of the compounds above.
CC/C=C/C(=O)N1CC2(CC(c3cccc(NC(=O)CC)c3)=NO2)C[C@H]1C(N)=O (some centres undefined)
  UCH37 DUB inh: 3.8
  HNF4A DNA FP: -1.4
  FGF22 binding: i
  LANA-H2A inh: 3.0
  Beta2AR agonist: -10
  E coli growth: x
  ALR H2O2 inh: 0

CCCCc1cc(=O)oc2c(CN(C)C)c(O)c(Cl)cc12
  UCH37 DUB inh: i
  HNF4A DNA FP: 1.0
  FGF22 binding: x
  LANA-H2A inh: 2.5
  Beta2AR agonist: -4
  E coli growth: 0.71
  ALR H2O2 inh: 12

Later entries.
compound	UCH37 DUB inh	HNF4A DNA FP	FGF22 binding	LANA-H2A inh	Beta2AR agonist	E coli growth	ALR H2O2 inh
CSCC[C@H](NC(=O)N1CCn2c1nc1ccccc12)C(=O)NCc1ccccc1	0.4	1.1	i	-8.8	-12	0.67	-16
Cc1cccc(NC(=O)CSCC(=O)NNC(=O)c2ccoc2C)c1	1.9	-2.3	i	-3.9	3	0.67	3
Cc1c2cn[nH]c(=O)c2c(C)n1-c1ccccc1	-3.1	0.2	i	6.5	-2	0.69	x
CC1=C(C(=O)Nc2ccccc2C(F)(F)F)C(c2ccc(C)s2)NC(=S)N1 (centres undefined)	4.2	2.4	i	3.3	12	0.71	18
C=C(C)CSc1cc(C)nc2c(-c3ccccc3)c(C)nn12	0.8	12	i	2.7	-2	0.65	-12
CCOC(=O)C1=C2SCC(=O)N2C(N)=C(C#N)C1	2.8	2.9	x	-2.7	-4	0.74	4
COc1ccc(Nc2cc(C(=O)NC3CCCC3)c3ccccc3n2)c(OC)c1	0.7	-0.8	i	4.4	-1	0.67	13
Cc1c(NC(=O)c2cc3ccccc3c(=O)s2)c(=O)n(-c2ccccc2)n1C	4.8	-2.3	i	9.8	5	0.73	2
COc1ccc(S(=O)(=O)NNC(=O)Cc2csc(C)n2)cc1[N+](=O)[O-]	1.6	-2.3	i	-4.3	-10	0.58	5
Cn1c(SCC(=O)Nc2nc3ccccc3s2)nnc1-c1ccccc1	1.1	3.3	x	-8.2	-2	0.74	2
O=C(NCC(=O)N(CCc1ccccc1)C(C(=O)NC1CCCC1)c1cccnc1)c1ccco1 (centres undefined)	2.4	-0.6	x	-2.3	-14	0.74	-10
O=C(NCc1ccco1)c1cc(C(=O)C2CC2)c[nH]1	-0.9	-1.7	x	3.1	-8	0.71	-6
O=C(Cc1c(O)c2ccccc2oc1=O)c1ccc(C(F)(F)F)cc1	1.3	-9.8	i	0.0	3	0.69	-6
CCn1c(Cc2ccccc2)nnc1SCC(=O)NC1CCCC1	-0.9	0.9	i	-3.9	0	0.64	-12
Cc1cc(NS(=O)(=O)c2ccccc2)cc(Cl)c1O	5.5	-1.7	x	-7.0	-8	0.67	99*
COc1cccc(CC2(CO)CCN(C(=O)NCCc3ccccc3)CC2)c1	3.7	-4.7	i	3.7	0	0.66	-4
